AP ELISA ortho – orthogonal test for alternative complement pathway inhibitors; Human serum alternative complement pathway, LPS-coated ELISA, C3 deposition; tested in compound mixtures; inhibition, % at 5 µM; hit rate 0.08% among 62,000;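 active = inhibition above 30% in each of the two pooled mixtures holding the compound, so the lower value exceeds 30%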;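 also: 0% = serum in Mg-EGTA without compound and 100% = EDTA serum blank; some compounds past the cut are filed as inactive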
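Assay system: Human serum alternative complement pathway, C3 deposition on LPS-coated wells | Incubation: 1 h serum-compound exposure at 37 °C | Doses: 5 µM per compound in ten-compound mixtures | Read-out: Percent inhibition | Technique: ELISA with HRP anti-human C3 antibody, TMB substrate, absorbance 450 nm | Replication: Two pool placements per compound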
CatL block – blocks human cathepsin L protease activity; hit rate 0.17% among 58,000; P07711; purified cathepsin L, fluorogenic substrate, fluorescence; inhibition, %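 (tested at 10 µM)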; in the data active = inhibition above about 45%;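 also: 0% = enzyme with no compound and 100% = no enzyme blank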
Target sequence (P07711 114-288 limits assumed): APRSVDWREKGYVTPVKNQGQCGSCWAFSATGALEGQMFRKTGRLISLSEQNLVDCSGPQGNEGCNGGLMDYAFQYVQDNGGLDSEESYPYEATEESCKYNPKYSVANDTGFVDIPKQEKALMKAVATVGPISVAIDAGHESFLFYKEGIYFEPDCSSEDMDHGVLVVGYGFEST
Target sequence (P07711 292-333 limits assumed): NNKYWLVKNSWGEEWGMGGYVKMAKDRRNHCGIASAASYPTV
FXIIa inh mix – blocks human factor XIIa in pooled compound mixtures; hit rate 0.2% among 62,000; purified FXIIa, fluorogenic substrate; AID 684; inhibition, % at 5 µM; in the data active = inhibition above about 20%, passing the limit was not always enough;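 also: 0% = enzyme without compound and 100% = no enzyme blank; some results filed as inactive read as strong as hits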
CatB mix inh – human cathepsin B inhibition by mixtures; Purified cathepsin B, AMC dipeptide fluorescence, compound mixtures; AID 488; hit rate 0.06% among 62,000; inhibition, %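 (ten-compound pools at 5 µM per compound and 50 µM total)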; in the data active = inhibition above about 22%, passing the limit was not always enough;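 also: 0% = enzyme without compound and 100% = no enzyme blank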
CatG inh – blocks human cathepsin G enzyme activity; P08311; purified enzyme, AMC-tetrapeptide fluorescence, pooled mixtures; inhibition, % at 5 µM (by protocol); hit rate 0.2% among 62,000; AID 581;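 active = inhibition above 20% in each of the two mixture wells holding the compound; inactive = inhibition of 20% or less in either well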;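 also: 0% = enzyme control without mixture and 100% = blank lacking enzyme; strong numbers were not always called active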
Target sequence (P08311 21-244 limits assumed): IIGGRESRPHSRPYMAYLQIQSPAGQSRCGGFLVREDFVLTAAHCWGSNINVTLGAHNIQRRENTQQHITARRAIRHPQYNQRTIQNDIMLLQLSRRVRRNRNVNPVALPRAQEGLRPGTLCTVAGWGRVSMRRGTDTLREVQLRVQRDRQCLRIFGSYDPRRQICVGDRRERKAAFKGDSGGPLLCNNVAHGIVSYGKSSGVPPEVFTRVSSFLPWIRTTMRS
CatB block – blocks human cathepsin B protease activity; P07858; purified cathepsin B, fluorogenic substrate, fluorescence; inhibition, %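 (tested at 10 µM)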; hit rate 0.1% among 63,000; AID 453; in the data active = inhibition above about 21%;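 also: 0% = enzyme with no compound and 100% = no enzyme blank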
CatS block – blocks human cathepsin S protease activity; P25774; recombinant cathepsin S, AMC dipeptide fluorescence, pooled mixtures; inhibition, %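 (tested at 5 µM per compound within 10-compound mixtures)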; hit rate 0.06% among 62,000; AID 501; in the data active = inhibition above about 32%, passing the limit was not always enough;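 also: 0% = enzyme without compound and 100% = blank without enzyme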
Target sequence (P25774 115-331 limits assumed): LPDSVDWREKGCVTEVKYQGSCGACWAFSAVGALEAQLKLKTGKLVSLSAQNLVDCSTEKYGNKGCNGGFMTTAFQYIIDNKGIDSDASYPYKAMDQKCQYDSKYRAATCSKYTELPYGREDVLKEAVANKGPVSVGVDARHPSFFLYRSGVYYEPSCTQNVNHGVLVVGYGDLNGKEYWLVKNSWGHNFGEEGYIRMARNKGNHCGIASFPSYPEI
* marks the source's active call; other numbers are inactive results.

SMILES	AP ELISA ortho	CatL block	FXIIa inh mix	CatB mix inh	CatG inh	CatB block	CatS block
COc1ccc(C(=O)N2CCC(n3c(C)nc4cc(F)ccc43)CC2)cc1OC	0.8	9.9	1.1	-4.9	1.3	-5.4	-0.3
COc1ccc(C(=O)N2CCN=C2SCc2cccnc2)cc1OC	22.1	-1.8	7.2	6.2	0.4	-1.5	-1.2
O=C(CSc1nnc(C2CCCCC2)n1-c1ccccc1)NCc1ccco1	7.7	-16.2	1.2	4.5	-2.3	-3.4	-17.4
C=C(C)c1cccc(C(C)(C)NC(=O)NCC2COCCO2)c1 (configuration not stated)	5.2	8.4	4.1	1.5	48.8	5.4	9.5
Cc1nn(-c2ccccc2)c2[nH]c(=O)c(CNCc3ccc4c(c3)OCO4)cc12	0.9	30.6	1.1	0.5	-2.8	3.7	2.7
CCCc1ccc(OCc2ccc(C(=O)N3CCN(c4ccccn4)CC3)o2)c(OC)c1	1.4	10.1	4.4	-2.0	5.7	-0.8	6.3
O=C(C1CC(c2ccc(F)cc2)=NO1)N1CCCCC1 (configuration not stated)	13.2	6.8	-0.1	2.8	11.2	2.7	-1.8
CCOC(=O)N1CCC(C(N)=O)CC1	11.4	-5.0	-5.6	7.5	10.2	4.1	-4.5
Cc1nc2nc[nH]n2c(=O)c1NC(=O)CCc1ccccc1	8.5	-3.7	-8.0	3.6	8.0	0.8	4.0
CC(CN(C)Cc1ccccc1)OC(=O)c1ccc2c(c1)OCCO2 (configuration not stated)	3.0	6.8	-2.2	4.7	9.2	-0.1	-32.0
Cc1nc2cc(S(=O)(=O)N3CCC(C(=O)O)CC3)ccc2n1C1CCCC1	12.7	5.4	-6.7	3.1	7.6	3.1	-3.0
Cc1ccc(NC(=O)C2CC(c3ccc(F)cc3)=NO2)cc1 (configuration not stated)	12.5	3.8	0.6	2.6	7.2	1.3	-4.1

Record cards, as listed above:
Results for COc1ccc(C(=O)N2CCN=C2SCc2cccnc2)cc1OC : AP ELISA ortho: 22.1; CatL block: -1.8; FXIIa inh mix: 7.2; CatB mix inh: 6.2; CatG inh: 0.4; CatB block: -1.5; CatS block: -1.2
Results for Cc1ccc(NC(=O)C2CC(c3ccc(F)cc3)=NO2)cc1 (configuration not stated) : AP ELISA ortho: 12.5; CatL block: 3.8; FXIIa inh mix: 0.6; CatB mix inh: 2.6; CatG inh: 7.2; CatB block: 1.3; CatS block: -4.1

Remaining list, next part:
SMILES	AP ELISA ortho	CatL block	FXIIa inh mix	CatB mix inh	CatG inh	CatB block	CatS block
COc1ccc(C(=O)c2no[n+]([O-])c2C(=O)c2ccc(OC)cc2)cc1	1.4	27.6	1.1	37.0*	0.9	31.0*	8.4
COc1cc(OC)c(C2C(C#N)=C(N)Oc3cc(C)n(CCCN4CCOCC4)c(=O)c32)cc1OC (configuration not stated)	19.2	-4.4	12.2	-4.3	0.8	-4.9	-3.7
O=C(CSCC(=O)NCc1ccco1)NCc1ccco1	0.8	-9.8	-1.0	-2.6	-9.3	-5.3	-7.9
CCc1cc(=O)oc2cc(C)cc(OC(=O)c3ccco3)c12	3.3	9.6	-15.5	-0.2	17.8	-6.7	-3.5
Cc1cc2cc(C(c3nnnn3Cc3ccco3)N3CCc4ccccc43)c(=O)[nH]c2cc1C (configuration not stated)	-10.3	4.2	4.4	3.7	-10.0	2.6	2.9
CC(=O)Nc1ccc2oc(-c3ccccc3Br)nc2c1	-12.5	2.8	-0.6	1.4	8.4	1.7	0.8
COc1ccc(OC(=O)c2ccncc2)cc1	12.8	-2.4	3.0	3.8	-2.1	-4.8	0.0
CCOC(=O)C1CCN(C(=O)C2CCN(S(=O)(=O)CC)CC2)CC1	25.0	0.5	0.9	-1.7	-2.5	2.7	6.5
COc1ccc(C(=O)Nc2nc(-c3cccs3)cs2)cc1	-4.1	3.7	-2.5	-3.1	-1.6	0.6	2.7
CC(C)C(C(=O)OCC(=O)c1ccc2c(c1)NC(=O)CO2)N1C(=O)c2ccccc2C1=O (configuration not stated)	-13.0	-4.2	10.7	-8.0	-28.3	2.0	-15.7
COc1ccc(OCC(=O)Nc2cccc(C(C)=O)c2)cc1	16.2	7.0	-12.6	1.8	8.4	1.6	-1.9
COc1ccc(C2=NOC(C(=O)NCc3ccc(F)cc3)C2)cc1 (configuration not stated)	8.7	-6.9	-14.1	0.5	-2.1	-4.2	5.3

As a short view, some entries already given:
SMILES	AP ELISA ortho	CatL block	FXIIa inh mix	CatB mix inh	CatG inh	CatB block	CatS block
CCOC(=O)N1CCC(C(N)=O)CC1	11.4	-5.0	-5.6	7.5	10.2	4.1	-4.5
Cc1nc2nc[nH]n2c(=O)c1NC(=O)CCc1ccccc1	8.5	-3.7	-8.0	3.6	8.0	0.8	4.0
CC(CN(C)Cc1ccccc1)OC(=O)c1ccc2c(c1)OCCO2 (configuration not stated)	3.0	6.8	-2.2	4.7	9.2	-0.1	-32.0
Cc1nc2cc(S(=O)(=O)N3CCC(C(=O)O)CC3)ccc2n1C1CCCC1	12.7	5.4	-6.7	3.1	7.6	3.1	-3.0
Cc1ccc(NC(=O)C2CC(c3ccc(F)cc3)=NO2)cc1 (configuration not stated)	12.5	3.8	0.6	2.6	7.2	1.3	-4.1
COc1ccc(C(=O)c2no[n+]([O-])c2C(=O)c2ccc(OC)cc2)cc1	1.4	27.6	1.1	37.0*	0.9	31.0*	8.4
COc1cc(OC)c(C2C(C#N)=C(N)Oc3cc(C)n(CCCN4CCOCC4)c(=O)c32)cc1OC (configuration not stated)	19.2	-4.4	12.2	-4.3	0.8	-4.9	-3.7
O=C(CSCC(=O)NCc1ccco1)NCc1ccco1	0.8	-9.8	-1.0	-2.6	-9.3	-5.3	-7.9
CCc1cc(=O)oc2cc(C)cc(OC(=O)c3ccco3)c12	3.3	9.6	-15.5	-0.2	17.8	-6.7	-3.5
Cc1cc2cc(C(c3nnnn3Cc3ccco3)N3CCc4ccccc43)c(=O)[nH]c2cc1C (configuration not stated)	-10.3	4.2	4.4	3.7	-10.0	2.6	2.9
CC(=O)Nc1ccc2oc(-c3ccccc3Br)nc2c1	-12.5	2.8	-0.6	1.4	8.4	1.7	0.8
COc1ccc(OC(=O)c2ccncc2)cc1	12.8	-2.4	3.0	3.8	-2.1	-4.8	0.0
CCOC(=O)C1CCN(C(=O)C2CCN(S(=O)(=O)CC)CC2)CC1	25.0	0.5	0.9	-1.7	-2.5	2.7	6.5
COc1ccc(C(=O)Nc2nc(-c3cccs3)cs2)cc1	-4.1	3.7	-2.5	-3.1	-1.6	0.6	2.7
CC(C)C(C(=O)OCC(=O)c1ccc2c(c1)NC(=O)CO2)N1C(=O)c2ccccc2C1=O (configuration not stated)	-13.0	-4.2	10.7	-8.0	-28.3	2.0	-15.7

(cont.)
SMILES	AP ELISA ortho	CatL block	FXIIa inh mix	CatB mix inh	CatG inh	CatB block	CatS block
O=C1CC(c2ccc(F)c(Br)c2)C2=C(CCCC2=O)N1 (configuration not stated)	4.2	-2.3	-4.4	8.1	10.3	4.6	-3.1
Nc1cc(OC(=O)c2cccs2)nn1S(=O)(=O)c1ccccc1	21.9	2.9	-10.0	68.8*	32.0*	75.7*	-1.8
COc1ccc(-c2nnc(SCC(=O)Nc3cc(C)on3)n2C)cc1OC	13.5	22.4	0.8	5.6	-0.2	-3.0	-9.8
COc1ccc(OCC(=O)Nc2cccc3ncccc23)cc1	-6.6	11.2	0.5	0.2	16.9	1.4	10.1
O=C(CN1CCN(C(=O)c2ccccc2)CC1)Nc1ncc(Br)cc1Br	-15.9	1.1	11.6	4.3	-11.5	3.3	21.9
CSc1nc(-c2ccco2)nn1S(=O)(=O)c1ccccc1	-10.8	2.4	1.0	5.0	-1.0	1.4	1.2
COCCCn1c(=N)c(C(=O)NCc2ccc3c(c2)OCO3)cc2c(=O)n3ccccc3nc21	4.8	13.5	-4.0	-2.4	9.8	0.0	1.7
COc1ccc(S(=O)(=O)N(CCCN2CCOCC2)Cc2ccc(OC)c(OC)c2)cc1	-4.2	8.4	8.1	-4.8	-10.0	7.1	-5.9
Cc1cc2c(c(=O)n1CCN(C)C)C(c1ccc(Br)cc1)C(C#N)=C(N)O2 (configuration not stated)	2.5	-14.8	-1.3	3.1	-3.3	-3.5	-7.8

Screens from PubChem BioAssay.

Not all compounds are listed; count on the stated rates, not on these rows.
